VACV mCherry inh: vaccinia inhibition (mCherry reporter). 310,000 tested, 0.63% active. Potency, µM (doses to about 36.5 µM), inactives show at the top dose activity change, negative = inhibition, hits mostly inhibitors. AID 720579. Vaccinia virus mCherry reporter infection, fluorescence; about a quarter of the inactives have no number; active = well fitted inhibition curve with a large enough effect; inconclusive = small, poorly fitted or top-dose-only effect; inactive = no such curve, though single readings can be large or run the other way; tested in A549 cells; also: nearly all actives have a fitted effect of over 35% in size; inactives centre near -10
Vaccinia Venus: inhibitors of vaccinia virus (Venus reporter); Potency, µM (top dose mostly 36.5 µM), inactives show at the highest dose activity change, negative = inhibition, actives largely listed as inhibitors; Vaccinia virus Venus reporter expression, fluorescence; 330,000 tested, 0.46% active; active means well fitted inhibition curve with a large enough effect; inconclusive means small, poorly fitted or top-dose-only effect; inactive means no such curve, though single readings can be large or run the other way; tested in A549 cells; also: nearly all actives have a fitted effect of over 30% in size; inactives centre near -10
Numbers without * were called inactive; i = inactive; ? = inconclusive; . = no result given; & = joins results of further samples; [ ] = dose if it differs, or a comment. % is scaled to controls: 0 for no effect and ±100 for the full control effect; potency is read from the fitted curve at half-maximal effect.

1) COC(=O)CSc1cc([N+](=O)[O-])cc2c1c(C1OCCO1)nn2-c1ccccc1
2) Nc1nsc2ccccc12
3) COc1ccc(N2CCN(c3oc(COc4ccccc4)nc3C#N)CC2)cc1
4) C=CCn1c(=S)[nH]c2cc(C(=O)Nc3ccc(F)cc3)ccc2c1=O
5) COc1ccccc1Nc1nc(NCC2CCCO2)c2ccccc2n1 (centres undefined)
6) COc1c(C)cccc1C(=O)Nc1cccc2ccc(C)nc12
7) Cc1ccc(C(=O)N[C@H](C(=O)OCC(=O)c2ccc[nH]2)C(C)C)cc1
8) CCCCCN(C(=O)CN(C)Cc1ccc(OC)cc1OC)c1c(N)n(CCCC)c(=O)[nH]c1=O
Assay by compound,1,2,3,4,5,6,7,8
VACV mCherry inh,-16%,?,-22%,-16%,-27%,-10%,i,-13%[1.46 µM]
Vaccinia Venus,-17%,?,-15%,-8%,-12%,-3%,-9%,?

9) O=C(O)c1ccccc1-c1ccccc1C(=O)Nc1cccc(O)c1
10) CN(Cc1ccccc1)C(=O)c1ccc(CSc2nc3cccnc3n2Cc2ccccc2F)cc1
11) CCO[C@H]1OC(C(=O)NCc2nc3ccccc3[nH]2)=C[C@@H](c2ccc(Br)cc2)[C@@H]1CCCO
12) O=C(N/N=C\c1ccc(F)cc1)c1csnn1
13) Cc1nn(C)c(Cl)c1S(=O)(=O)N1CCC(CO)(CCc2ccccc2)CC1
14) COc1ccc2c(=O)c(-c3nc(C)cs3)coc2c1
15) Clc1ccc(-c2ccccc2)cn1
16) O=C(NCC(=O)N1CCN(C(=O)c2ccco2)CC1)c1ccccc1
Assay by compound,9,10,11,12,13,14,15,16
VACV mCherry inh,12%,-15%,-7%,.,-14%,-6%,i,0%
Vaccinia Venus,2%,-7%,-25%,-3%,-16%,-1%,-3%,3%

17) COc1ccc(C(=O)NNC(=O)C(=O)/C=C(\O)c2ccc(C)cc2)cc1
18) O=C(Nc1ccccc1C(=O)N1CCCCC1)c1ccc(Cl)cc1Cl
19) O=c1c2c3c(sc2n2c(=S)[nH]nc2n1-c1ccccc1)CCC3
20) CSc1nc(C)cc(-n2cc(F)c(=O)[nH]c2=O)n1
21) COc1ccc(NC(=O)Nc2cccc3c2O[C@@H](CN(C)CC2CCCCC2)[C@@H](C)CN([C@H](C)CO)C3=O)cc1
22) O=C1NC[C@@H](Cc2cccc3ccccc23)N(CCc2cc(C(F)(F)F)cc(C(F)(F)F)c2)C1=O
23) COc1ccc(Nc2nc(NN)nc(C)c2[N+](=O)[O-])cc1
24) CCc1ccc(NC(=O)CSc2nc(-c3ccccc3)c(C#N)c(=O)[nH]2)cc1
Assay by compound,17,18,19,20,21,22,23,24
VACV mCherry inh,-10%,3%,i,.,-7%,-7%,-14%,-7%
Vaccinia Venus,-6%,-2%,-11%,-11%,?,-29%,-16%,1%

Exported with values under each structure: part of the list above
Results follow in this order: VACV mCherry inh	Vaccinia Venus
18. O=C(Nc1ccccc1C(=O)N1CCCCC1)c1ccc(Cl)cc1Cl
→ 3%	-2%
19. O=c1c2c3c(sc2n2c(=S)[nH]nc2n1-c1ccccc1)CCC3
→ i	-11%

New compounds follow:
25) COc1ccc(OC)c(Nc2ncnc3sc(-c4ccccc4)cc23)c1
26) COc1cccc(/C=N/NC(=O)c2cnccn2)c1OC
27) COc1ccc(NC(=O)CCSc2ccc(C)cc2)cc1S(=O)(=O)Nc1ccccc1Cl
28) CCc1cccc2c(SCC(=O)NCC3CCCO3)nc(-c3ccc(F)cc3)nc12 (centres undefined)
29) CC(=O)C1=C(O)C(=Cc2ccccc2)OC1=O
30) CC1CN(C(=O)CCC(=O)NCc2ccc(F)cc2)c2ccccc2S1 (centres undefined)
31) CN(C(=O)c1cnccn1)c1nnc(-c2cnccn2)s1
32) COc1ccc(OC)c(CN2CCCC(CO)C2)c1 (centres undefined)
Assay by compound,25,26,27,28,29,30,31,32
VACV mCherry inh,?,i[7.34 µM],-4%,-7%,i,-1%,-14%,-13%
Vaccinia Venus,-8%,-4%[7.34 µM],-23%,4%,-6%,-8%,-7%,9%

33) Cc1cc(Br)ccc1NC(=O)c1c(C)oc2ncnc(N3CCCCC3)c12
34) Cc1cc(C)cc(NC(=O)c2cccc(C(=O)Nc3cc(C)cc(C)c3)n2)c1
35) CCOc1ccc(OCC)c(NC(=O)CCc2nc3cccnc3n2Cc2cccs2)c1
36) O=C(CN1CCC(C(O)(c2ccccc2)c2ccccc2)CC1)Nc1cc(Cl)ccc1Cl
37) N/C(=N\[N+](=O)[O-])N1CCN(C(=O)c2ccccn2)CC1
38) C[C@H]1CCCCO[C@H](CN(C)Cc2ccc(C(=O)O)cc2)[C@@H](C)CN([C@@H](C)CO)C(=O)c2cc(NS(=O)(=O)c3cn(C)cn3)ccc2O1
39) O=C(NC1CCCC1)c1cc(-c2cccc(Cl)c2)on1
40) CN(C)C(CNC(=O)c1c(F)cccc1Cl)c1ccco1 (centres undefined)
Assay by compound,33,34,35,36,37,38,39,40
VACV mCherry inh,-12%,-7%,-10%,-15%,-5%,-10%,28%,-4%
Vaccinia Venus,4%,-3%,-5%,-3%,10%,6%,-5%,-11%

41) O=C(Cc1ccc(S(=O)(=O)N2CCCCC2)s1)Nc1ccc(F)c(F)c1
42) O=C(N/N=C/c1ccc([N+](=O)[O-])cc1)c1ccc(COc2ccccc2-c2ccccc2)cc1
43) CCN(CC)C(=O)c1sc2nc(Cc3ccccc3)[nH]c(=O)c2c1C
44) CCCCCN(C(=O)CCC(=O)OCC(=O)NCc1ccc(OC)cc1)c1c(N)n(CCCC)c(=O)[nH]c1=O
45) O=C(O)CCc1ccc(-c2ccccc2)n1CC(=O)Nc1ccccc1C(F)(F)F
46) Cn1c(C(=O)NCCc2ccccc2)cc(=O)n(C)c1=O
47) COC(=O)C1CCN(C(=O)c2cc(OC)c(OC)c(OC)c2)CC1
48) COc1ccc(-c2csc(C(C)(O)c3ccccc3)n2)cn1 (centres undefined)
Assay by compound,41,42,43,44,45,46,47,48
VACV mCherry inh,?,-9%,-8%,i,-7%,-2%,-6%,1%
Vaccinia Venus,-29%,-4%,-16%,-17%,-1%,-11%,-4%,-4%

49) COC(=O)c1ccc(C2C(C(=O)Nc3ccccc3)=C(C)Nc3nc4ccccc4n32)cc1 (centres undefined)
50) COCc1ccc(CN2CCc3c([nH]c4ccccc34)C2C(C)(C)C)o1 (centres undefined)
51) CCOc1cc(-c2ccc3c(c2)OCO3)cc(=[O+]CC)c2c(C)oc(C)c12
52) O=c1[nH]c(CSc2ncnc3sccc23)nc2cc(C(F)(F)F)ccc12
53) Cc1cc(C)cc(NC(=O)c2ccccc2CC[N+](=O)[O-])c1
54) Cc1ccc(-c2nnc(Nc3cccc(Cl)c3)c3ccccc23)cc1S(=O)(=O)N1CCOCC1
55) O=C(CSCc1ccccc1F)NCc1ccccc1
56) O=c1cc[nH]c2c1ccc1c(=O)cc[nH]c12
Assay by compound,49,50,51,52,53,54,55,56
VACV mCherry inh,-18%,?,-18%&-15%,-25%,.,-4%,-18%,-13%
Vaccinia Venus,-26%,-14%,14%&10%,-9%,-4%,-16%,-2%,-3%

57) COc1ccc(C)cc1-n1c(SCC(=O)Nc2cc(C)on2)nc2sc(C)c(C)c2c1=O
58) CC1(C(=O)O)CCCN(C(=O)c2cccnc2Oc2ccccc2)C1 (centres undefined)
59) O=C(O)Cc1ccc(NC(=O)c2ccc(Cl)c(Cl)c2)cc1
60) Cc1ccc(S(=O)(=O)NCC(=O)OCC(=O)NCc2ccco2)cc1
61) COc1ccccc1-c1ccnc(-n2ncc(C(=O)NCCc3ccccn3)c2C)n1
62) CC(/C=N/N1CCN(c2ccccn2)CC1)=C\c1ccccc1
63) CC1CCCCC1NC(=O)C1CCN(c2c3c(nc4ncnn24)CCC3)CC1 (centres undefined)
64) CCOc1ccccc1C1c2cc3c(cc2OC(C)(N2CCCC2)C1C)OCO3 (centres undefined)
Assay by compound,57,58,59,60,61,62,63,64
VACV mCherry inh,-13%,51%[activator],i,-14%,?,i,-11%,-4%
Vaccinia Venus,-12%,-2%,-11%,-7%,-15%,-16%,-1%,-17%

65) CC(=O)Nc1ccc2c(c1)CCc1ccccc1-2
66) COCC(C)NCc1ccc(OC)c(Br)c1 (centres undefined)
67) O=C(NCc1ccc(OC(F)(F)F)cc1)C1CCC(=O)N(C2CC2)C1 (centres undefined)
68) CC(C)C(NC(=O)OCc1ccccc1)C(=O)OCC(=O)NC1CC1 (centres undefined)
69) Cc1ccc2nc(CN3CCN(S(=O)(=O)c4ccc(C)c(C)c4)CC3)oc2c1
70) O=C1c2ccncc2C(=O)N1CNc1ccc(Cl)cc1
71) O=S(=O)(c1cccc(Cl)c1Cl)N1CCN(C(=S)NCCCN2CCOCC2)CC1
72) NS(=O)(=O)c1ccc(CNC(=O)CNC(=O)c2ccc(Br)o2)cc1
Assay by compound,65,66,67,68,69,70,71,72
VACV mCherry inh,-26%,i,-20%,4%,-2%,i,-25%,-14%
Vaccinia Venus,-6%,-6%,-13%,-1%,3%,-8%,-20%,-6%

73) CCCNC(=O)c1cc2ccccc2c(=O)o1
74) O=C(c1ccc(F)cc1)N1CCC(N2CCOCC2)CC1
75) CCn1c(SCC(=O)N(C)CCC#N)nc2cc(S(=O)(=O)N3CCOCC3)ccc21
76) O=C1CCc2cc(S(=O)(=O)N3CCC(C(=O)NCCC4=CCCCC4)CC3)ccc2N1
77) CC1Cc2ccccc2N1CC(=O)NC(=O)NC(C)(C)C (centres undefined)
78) COc1ccc(C(C(=O)NC(C)(C)C)N(C(=O)CCC(=O)Nc2cc(C)on2)c2ccc3c(c2)OCCO3)cc1 (centres undefined)
79) O=c1c2ccccc2on1-c1ccccc1
80) CC/C(=N\Nc1ccccc1)c1c(O)n(C)c(=O)n(C)c1=O
Assay by compound,73,74,75,76,77,78,79,80
VACV mCherry inh,i,-8%,-11%,-13%,-11%,-12%,-16%,-1%
Vaccinia Venus,-1%,-3%,-15%,-9%,-6%,0%,-6%,-20%

81) COc1ccc(-c2nc3ccccc3o2)cc1NC(=O)c1ccc(N2CCC(C)CC2)c([N+](=O)[O-])c1
82) O=C(Cc1ccc([N+](=O)[O-])cc1)Nc1ccc(Cl)cc1
83) COc1cc(NS(=O)(=O)c2ccc3c(c2)CCCN3C(C)=O)cc(OC)c1OC
84) CCCn1cccc(C(=O)Nc2ccc(OC)cc2)c1=O
85) CCOc1ccc(NC(=O)C(Cc2ccccc2)NS(=O)(=O)c2ccc3c(c2)oc(=O)n3C)cc1 (centres undefined)
86) COC(=O)C1CCN(C(c2ccccc2Cl)c2sc3nc(-c4ccco4)nn3c2O)CC1 (centres undefined)
87) CN(C(=O)CSc1nnc(-c2n[nH]c3ccccc23)o1)c1ccccc1
88) CC(C)NS(=O)(=O)c1ccc(NC(=S)NC(=O)c2cccc([N+](=O)[O-])c2)cc1
89) COC(=O)C1=C(c2ccc(-c3ccccc3)c(F)c2)C[C@@H]2CC[C@H]1N2C(=O)NCCO
90) N#Cc1c(N)c(C(=O)c2ccccc2)n2ccccc12
Assay by compound,81,82,83,84,85,86,87,88,89,90
VACV mCherry inh,-12%,0%,?,-8%,6%,-16%,i,i,?,i
Vaccinia Venus,-11%,-6%,?,-14%,0%,-15%,-7%,-17%,-25%,-11%

Entries shown so far that contain an NH in an aromatic ring, in the order listed:
4) C=CCn1c(=S)[nH]c2cc(C(=O)Nc3ccc(F)cc3)ccc2c1=O
7) Cc1ccc(C(=O)N[C@H](C(=O)OCC(=O)c2ccc[nH]2)C(C)C)cc1
8) CCCCCN(C(=O)CN(C)Cc1ccc(OC)cc1OC)c1c(N)n(CCCC)c(=O)[nH]c1=O
11) CCO[C@H]1OC(C(=O)NCc2nc3ccccc3[nH]2)=C[C@@H](c2ccc(Br)cc2)[C@@H]1CCCO
19) O=c1c2c3c(sc2n2c(=S)[nH]nc2n1-c1ccccc1)CCC3
20) CSc1nc(C)cc(-n2cc(F)c(=O)[nH]c2=O)n1
24) CCc1ccc(NC(=O)CSc2nc(-c3ccccc3)c(C#N)c(=O)[nH]2)cc1
43) CCN(CC)C(=O)c1sc2nc(Cc3ccccc3)[nH]c(=O)c2c1C
44) CCCCCN(C(=O)CCC(=O)OCC(=O)NCc1ccc(OC)cc1)c1c(N)n(CCCC)c(=O)[nH]c1=O
50) COCc1ccc(CN2CCc3c([nH]c4ccccc34)C2C(C)(C)C)o1 (centres undefined)
Assay by compound,4,7,8,11,19,20,24,43,44,50
VACV mCherry inh,-16%,i,-13%[1.46 µM],-7%,i,.,-7%,-8%,i,?
Vaccinia Venus,-8%,-9%,?,-25%,-11%,-11%,1%,-16%,-17%,-14%

52) O=c1[nH]c(CSc2ncnc3sccc23)nc2cc(C(F)(F)F)ccc12
56) O=c1cc[nH]c2c1ccc1c(=O)cc[nH]c12
87) CN(C(=O)CSc1nnc(-c2n[nH]c3ccccc23)o1)c1ccccc1
Assay by compound,52,56,87
VACV mCherry inh,-25%,-13%,i
Vaccinia Venus,-9%,-3%,-7%

High-throughput results deposited in PubChem by National Center for Advancing Translational Sciences (NCATS).
